Bioassay records deposited in PubChem by National Center for Advancing Translational Sciences (NCATS).
JMJD2E inh: blocks human JMJD2E demethylase activity | B2RXH2 | JMJD2E catalytic domain, FDH-coupled NADH fluorescence (FDH is formaldehyde dehydrogenase) | Potency, µM (doses to about 57.1 µM), inactives show at the highest dose activity change, negative = inhibition, most hits filed as inhibitors | 230,000 tested, 1.6% active; active means well fitted inhibition curve with a large enough effect, not every such curve was filed as active; inconclusive means small, poorly fitted or top-dose-only effect, or another doubt; inactive means no such curve, though single readings can be large or run the other way;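 further: 0% = wells with enzyme and -100% = buffer wells without enzyme; nearly all actives have a fitted effect of over 50% in size; many of its hits are not listed in these tables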
TRb SRC2 PPI: disrupts binding of human TR beta to SRC2. P10828. TRbeta-SRC2 peptide binding, fluorescence polarization; receptor liganded with 1 µM T3. Potency, µM (series often up to 106 µM), without a hit: at the highest dose activity change, negative = inhibition, actives largely listed as inhibitors. 280,000 tested, 0.065% active;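 further: plate controls were bound peptide for no effect and peptide without receptor for full effect; nearly all actives have a fitted effect of over 50% in size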
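Quantitative HTS by FP: 0.6 uM TRb LBD, 20 nM labeled SRC2 20-mer, 1 uM T3, 5% DMSO; 5 hr ambient incubation; % activity per concentration and potencies from concentration series.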
L3MBTL1 block: blocks human L3MBTL1; Q9Y468; Potency, µM (series often up to 57.1 µM), without a hit: at the top dose activity, negative = inhibition, hits mostly inhibitors; AlphaScreen L3MBTL1–H3K9me1 peptide binding; 230,000 tested, 0.66% active; AID 485360; further: nearly all actives have a fitted effect of over 60% in size
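AlphaScreen proximity signal between nickel-chelate acceptor and streptavidin donor beads (final 10 ug/mL) reports binding of 50 nM L3MBTL1 to 75 nM biotin-H3 K9me1 peptide; complex incubated with compounds 30 min at room temperature; cefsulodin titration as control.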
Tau fibril ThT: inhibitors of human tau fibril formation, thioflavin T binding; 270,000 tested, 2.1% active; recombinant tau K18 P301L (four-repeat tau fragment), heparin-induced fibrillization, ThT fluorescence; AID 1460; P10636; Potency, µM (top dose mostly 57.4 µM), without a hit: at the top dose activity, negative = inhibition, actives largely listed as inhibitors; further: nearly all actives have a fitted effect of over 55% in size
Target sequence (P10636 561-689 P618L limits assumed): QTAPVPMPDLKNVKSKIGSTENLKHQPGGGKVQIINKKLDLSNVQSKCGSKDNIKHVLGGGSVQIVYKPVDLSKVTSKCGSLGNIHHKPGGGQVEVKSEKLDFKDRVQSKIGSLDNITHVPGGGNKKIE
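Recombinant human tau K18 fragment […] carrying P301L, 15 uM unlabeled plus 0.24 uM Alexa 594-labeled, was fibrillized with 20 uM heparin in 100 mM sodium acetate pH 7 for 6 hr at 37 C; 30 uM ThT fluorescence read after 1 hr.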
TexasRed fluor: counter-screen for TRb-SRC2 inhibitors: fluorescence interference | TRb/SRC2 Texas Red total fluorescence interference | Potency, µM (doses to about 106 µM), for the others: at the top dose fluorescence change, negative = quenching | 280,000 tested, 0.29% active | AID 1479; active means well fitted curve in either direction with a large enough effect; inconclusive means small, poorly fitted or top-dose-only effect
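Human TRb ligand-binding domain at 0.6 uM with 20 nM Texas Red SRC2 peptide in Tris buffer containing 1 uM T3 and 5% DMSO, incubated with compound 5 h at ambient temperature. Total fluorescence (555/632 nm) calculated as parallel + 2 × perpendicular.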
Tau FP inhib: blocks human tau fibril formation measured by polarization | P10636 | K18 P301L tau heparin fibrillization, Alexa594 FP, 6 h | Potency, µM (top dose mostly 57.7 µM), for inactives: top-dose activity, negative = inhibition, actives largely listed as inhibitors | 280,000 tested, 0.39% active; further: nearly all actives have a fitted effect of over 55% in size
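FP of Alexa 594-tau after heparin (20 uM) induction. Substrate: human K18 P301L, 15 uM unlabeled, 0.24 uM labeled. Buffer 100 mM sodium acetate pH 7. 6 hr, 37 C.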
RECQ1 inh: inhibitors of human RECQ1 DNA helicase. P46063. RECQ1 DNA unwinding, red fluorescence kinetic read. Potency, µM (highest dose often 57.3 µM), for inactives: at the highest dose activity, negative = inhibition, actives largely listed as inhibitors. 240,000 tested, 0.54% active. AID 2549;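 further: plate controls were vehicle for no effect and no enzyme for full effect; nearly all actives have a fitted effect of over 30% in size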
Target sequence (P46063 whole entry, looked up): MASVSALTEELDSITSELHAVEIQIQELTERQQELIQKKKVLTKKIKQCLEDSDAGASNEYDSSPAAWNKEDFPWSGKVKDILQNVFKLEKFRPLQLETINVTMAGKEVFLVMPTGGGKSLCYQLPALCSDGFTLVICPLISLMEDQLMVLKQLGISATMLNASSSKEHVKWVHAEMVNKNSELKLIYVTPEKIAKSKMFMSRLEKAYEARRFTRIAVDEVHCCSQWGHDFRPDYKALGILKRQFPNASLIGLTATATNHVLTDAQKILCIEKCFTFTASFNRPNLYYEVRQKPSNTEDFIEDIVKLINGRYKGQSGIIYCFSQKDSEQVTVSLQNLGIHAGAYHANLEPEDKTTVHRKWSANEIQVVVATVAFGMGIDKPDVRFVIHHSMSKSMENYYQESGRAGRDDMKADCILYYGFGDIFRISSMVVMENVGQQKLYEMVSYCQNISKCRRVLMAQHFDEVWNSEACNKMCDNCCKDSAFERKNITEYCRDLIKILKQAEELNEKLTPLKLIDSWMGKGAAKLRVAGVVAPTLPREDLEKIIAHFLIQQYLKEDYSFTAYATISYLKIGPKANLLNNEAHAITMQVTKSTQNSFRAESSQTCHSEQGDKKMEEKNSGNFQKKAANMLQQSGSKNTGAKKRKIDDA
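50 nM RECQ1T1 preincubated 15 min with compound in Tris pH 8.0 buffer with MgCl2, DTT, Tween-20 and 2.5 ug/ml poly(dI-dC); started with 200 nM TAMRA/BHQ-2 forked duplex and 2 mM ATP. Unwinding read as fluorescence (525/598 nm), two reads 2 h apart.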
* hit, by the source's call; i = inactive; ? = inconclusive; . = not tested or not shown; & = joins results of further samples; ! = repeats disagree; [ ] = another dose, or the depositor's remark. Unless noted, the call rests on the fitted dose curve; in most records, active means well fitted curve in the direction sought with a large enough effect; inconclusive means small, poorly fitted or top-dose-only effect, or another doubt; inactive means no such curve, though single readings can be large; an effect the other way counts as inactive or inconclusive. Unless noted, on the % scale 0 is the no-effect control and ±100 the full control effect; potency means the concentration at half of the fitted maximal effect. This is a subset; the hit share may differ from the screen's.

#	SMILES	JMJD2E inh	TRb SRC2 PPI	L3MBTL1 block	Tau fibril ThT
1	O=C(Cc1ccc(F)cc1)Nc1nnc(SCC(=O)N2CCCCC2)s1	3%	-8%	0%	1%
2	COc1ccc(-c2noc(CSc3nc(-c4ccccc4)cc(=O)[nH]3)n2)cc1	?	-4%	.	-1%
3	O=C(OCC(=O)N1CCc2ccccc21)C1=COCCO1	6%	-2%	38%[activator]	3%
4	CC1CCN(c2nc(N(C)c3ccccc3)nc(N)c2[N+](=O)[O-])CC1	-2%	-5%	?	-16%
5	Cc1ccc2c(c1)C(=O)C1(O)CCN(c3ccccc3)C1=N2 (stereo unspecified)	.	1%&4%	.	7.9µM*!
6	CCCCC#Cc1cncc(C(=O)N/N=C/c2cccc(OC)c2)c1	2%	1%	-5%	-15%
7	CNC(=O)CN(C1CCCCC1)S(=O)(=O)c1ccc(OC)c(Cl)c1	3%	-7%	-14%	-3%
8	c1ccc(CN2CCN(C3=Nc4cccc5cccc3c45)CC2)cc1	-17%	4%	.	?
9	COc1ccc(CCCC(=O)NC2CCCCC2)cc1	7%	-7%	0%	-6%
10	O=C(CSC1=NCCS1)N1CCCCCC1	3%	-8%	3%	-7%
11	CC(C)(C)c1nc(S(=O)(=O)c2ccc(Cl)cc2)c(N2CCOCC2)o1	?	-8%	.	?
12	CCOCC(=O)OCC(=O)NC12CC3CC(CC(C3)C1)C2	-4%	-2%	-1%	1%
13	c1ccc(CC2CCN(C3=Nc4cccc5cccc3c45)CC2)cc1	-11%	-1%	-13%	?
14	CCN(CCCNC(=O)C1CCN(S(=O)(=O)CC)CC1)c1cccc(C)c1	-5%	4%	-3%	-10%
15	CCOc1ccc(N/C(SC)=C(/C#N)C(N)=O)cc1	10%	-4%	4%	-1%

#	TexasRed fluor	Tau FP inhib	RECQ1 inh
1	-2%	-1%	-5%
2	-6%	-6%	-5%
3	-5%	5%	-4%
4	1%	0%	i
5	-2%&2%	-12%&1%	i
6	0%	-16%	-16%
7	-4%	-5%	i
8	-2%	-3%	-6%
9	1%	-4%	-7%
10	0%	0%	-7%
11	-8%	?	-4%
12	-3%	2%	-5%
13	-5%	3%	-4%
14	-4%	6%	-7%
15	2%	-1%	i

More records
#	SMILES	JMJD2E inh	TRb SRC2 PPI	L3MBTL1 block	Tau fibril ThT
16	COc1ccc(NS(=O)(=O)c2cc(NC(=O)Cn3cnc4c3c(=O)n(C)c(=O)n4C)ccc2C)cc1	5%	-2%	9%	-6%
17	Cc1cc(C)n(-c2nc(-c3cccc(Cl)c3)cs2)n1	0%	-14%	25%	?
18	CCc1nc(C)cn1S(=O)(=O)c1ccc([N+](=O)[O-])cc1	-2%	-3%	0%	-12%
19	COc1ccc(OCc2nnc(SCc3ccc(C(=O)O)cc3)o2)cc1	-28%	10%	-3%	?
20	Cc1ccccc1NC(=O)NC1(C(=O)N2CCOCC2)CCCCC1	1%	-7%	1%	-1%
21	CC(C)COC(=O)N1CCCC1C(=O)Nc1nccs1 (stereo unspecified)	-11%	-8%	.	-6%
22	CCn1c(SCC(=O)NCc2ccco2)nnc1C(C)C	?	-7%	-4%	?
23	CCOc1ccc(NC(=O)CSc2nc3c(c(=O)n2C)SC(C)C3)cc1 (stereo unspecified)	4%	-4%	-8%	-12%
24	CSc1nsc(SC)c1C(=O)NCCNS(=O)(=O)c1ccc(C)cc1	?	-5%	7%[11.4 µM]	-18%
25	COc1ccc(NC(=O)C2C3CC/C=C\CCC32)cc1 (stereo unspecified)	4%	6%	-1%	-1%
26	O=C(Nc1ccccc1C(=O)O)c1cncc(Br)c1	-3%	-3%	.	-5%
27	CC(C)(C)C(=O)Nc1ccc2c(c1)-c1cc(NC(=O)C(C)(C)C)ccc1C2	3%	1%	5%	?
28	O=C(Nc1ccc(Cl)cc1)OCc1cncs1	-4%	7%	-21%	-3%
29	COc1ccc(CCCC(=O)NC2CCCCC2C)c(C)c1 (stereo unspecified)	-1%	6%	-7%	-13%
30	CCN(CCCNC(=O)C1CCN(S(=O)(=O)c2c(C)[nH]c(=O)[nH]c2=O)CC1)c1cccc(C)c1	0%	5%	.	-19%

#	TexasRed fluor	Tau FP inhib	RECQ1 inh
16	-2%	0%	i
17	-2%	-13%	-13%
18	-2%	-11%	-5%
19	-6%	-5%	0%
20	-1%	-6%	-4%
21	-1%	-2%	-4%
22	-2%	?	-10%
23	0%	3%	i
24	-1%	-2%	-1%
25	-1%	-1%	i
26	4%	2%	-5%
27	-3%	4%	-15%
28	3%	-13%	-10%
29	3%	-3%	-3%
30	-3%	8%	i

(list continues)
#	SMILES	JMJD2E inh	TRb SRC2 PPI	L3MBTL1 block	Tau fibril ThT
31	Fc1ccc(N2CCN(C3=Nc4cccc5cccc3c45)CC2)cc1	-6%	1%	?	4.5µM*
32	O=C(N[C@@H](Cc1ccccc1)C(=O)NC1CCCCC1)c1ccco1	-3%	-18%	.	7%
33	Cc1cc(NC(=O)CSc2nc3c(c(=O)n2-c2ccccc2)SC(C)C3)no1 (stereo unspecified)	-4%	-2%	-11%	-5%
34	CCOC(=O)N1CCN(c2nc(N(c3ccccc3)c3ccccc3)nc(-n3ccnc3)n2)CC1	?	6%	-2%	-22%
35	CC(C)=CC(=O)Nc1nnc(-c2cccnc2)s1	11%	6%	0%	-8%
36	O=C1N=C(O)CN1/N=C/c1ccc(-c2ccc([N+](=O)[O-])cc2)o1	-5%	2%	.	10µM*
37	CC(OC(=O)c1cc(=O)[nH]c2ccccc12)c1ccccc1 (stereo unspecified)	-25%	4%	.	-2%
38	O=C(COc1ccccc1[N+](=O)[O-])OCC(=O)N1CCC(Cc2ccccc2)CC1	5%	-10%	9%	4%
39	CN(c1ccccc1)c1nc(N)c([N+](=O)[O-])c(N2CCCCCC2)n1	-1%	-4%	-7%	-18%
40	CCCc1ccc(C(=O)NNc2cccc(C)c2)cc1	2%	-9%	9%	-13%
41	Cc1ccccc1NC(=S)N1CCCC1	-6%	3%	2%	6%
42	O=C(O)CC12CC3CC(C1)CC(n1ncc(NCc4ccc5c(c4)OCO5)c(Cl)c1=O)(C3)C2	2%	1%	.	-5%
43	O=C(Nc1nnc(CCN2CCCCC2)s1)c1cccc(Cl)c1	-14%	-7%	-2%	2%
44	CC1Cc2nc(SCC(=O)N3CCN(c4ccccc4)CC3)n(C)c(=O)c2S1 (stereo unspecified)	7%	-6%	-10%	-17%
45	CCc1ccc(/C=C/C(=O)c2ccc(S(=O)(=O)N(C)C)cc2)cc1	-3%	-1%	0%	8%

#	TexasRed fluor	Tau FP inhib	RECQ1 inh
31	0%	-1%	i
32	3%	0%	i
33	-1%	-1%	-2%
34	-1%	-7%	-4%
35	1%	2%	-8%
36	-3%	0%	-1%
37	-5%	-2%	0%
38	-3%	9%	i
39	2%	-7%	-4%
40	2%	-2%	-10%
41	1%	-3%	-4%
42	3%	-10%	40µM*
43	0%	-3%	-1%
44	0%	-3%	i
45	-1%	-6%	-4%

One compound at a time, from the list above:
Listed for O=C(Nc1nnc(CCN2CCCCC2)s1)c1cccc(Cl)c1 = JMJD2E inh: -14%; TRb SRC2 PPI: -7%; L3MBTL1 block: -2%; Tau fibril ThT: 2%; TexasRed fluor: 0%; Tau FP inhib: -3%; RECQ1 inh: -1%
Listed for CCc1ccc(/C=C/C(=O)c2ccc(S(=O)(=O)N(C)C)cc2)cc1 = JMJD2E inh: -3%; TRb SRC2 PPI: -1%; L3MBTL1 block: 0%; Tau fibril ThT: 8%; TexasRed fluor: -1%; Tau FP inhib: -6%; RECQ1 inh: -4%

Other structures follow:
#	SMILES	JMJD2E inh	TRb SRC2 PPI	L3MBTL1 block	Tau fibril ThT
46	COc1ccc(C2CC(=O)Oc3ccc(C(C)(C)C)cc32)cc1 (stereo unspecified)	.	5%	13%	-9%[81.4 µM]
47	O=C(CSC1=NCCS1)NC1CCCCC1	-4%	-8%	.	-1%
48	CCn1c(SCCOc2ccc(OC)cc2)nnc1C(CO)NC(=O)c1ccc(OC)cc1 (stereo unspecified)	4%	-1%	4%	-9%
49	O=[N+]([O-])c1c(NCCO)cc(N2CCC3(CC2)OCCO3)c2nonc12	11%	5%	-5%	11%
50	CC(OC(=O)CCN1C(=O)c2cccc([N+](=O)[O-])c2C1=O)C(=O)Nc1cc(Cl)cc(Cl)c1 (stereo unspecified)	-5%	-4%	-2%	-7%
51	CCCCOc1ccc(C(=O)Nc2cc(C)c(OCC(=O)N3CCOCC3)c(C)c2)cc1	7%	-10%	-3%	-19%
52	C=CCn1c(SCC(=O)Nc2cc(C)nn2-c2ccccc2)nnc1C1CCCCC1	1%	-9%	.	-1%
53	CCOC(=O)N1CCN(c2cc(NCCO)c([N+](=O)[O-])c3nonc23)CC1	14%	1%	-5%	?
54	C=C(C(C)=O)C(O)c1ccc(Cl)cc1 (stereo unspecified)	-2%	-6%	.	-4%
55	COc1ccccc1N1CC=C(c2cccc([N+](=O)[O-])c2)NC1=O	?	10%	-10%	?
56	CCOC(=O)C1=C(C)NC(SC)=NC1c1ccccc1 (stereo unspecified)	-3%	-6%	11%	1%
57	O=C(COC(=O)/C=C/C(=O)N1CCN(c2ccccc2)CC1)NC(c1ccccc1)c1ccccc1	6%	-8%	.	?
58	CCn1c(SCC(=O)N2CCN(c3ccc(Cl)cc3)CC2)nc2ccccc2c1=O	0%	7%	1%	-11%
59	CCCCNC(=O)N(O)C1N(/N=C/c2cccs2)C(=S)SC1(C)C (stereo unspecified)	-3%	-5%	-13%	-10%
60	c1ccc(N(c2ccccc2)c2nc(N3CCCC3)nc(-n3ccnc3)n2)cc1	-27%	1%	-27%	?

#	TexasRed fluor	Tau FP inhib	RECQ1 inh
46	-1%	6%[81.3 µM]	-5%[81.1 µM]
47	-2%	8%	i
48	2%	1%	i
49	-1%	0%	4%
50	0%	0%	2%
51	-1%	0%	-7%
52	1%	6%	14%
53	3%	5%	2%
54	-3%	1%	i
55	-1%	-5%	-5%
56	1%	1%	i
57	4%	-5%	2%
58	1%	7%	-18%
59	-3%	-7%	-5%
60	0%	-9%	2%
